High-throughput results (PubChem)
HCMV UL50-53 inh = inhibitors of HCMV UL50-UL53 interaction, biochemical, HTRF. 0.15% of 190,000 active. normalized percent inhibition. AID 1918969, 2023. inhibition, % (concentration not given with the values). HCMV UL50-UL53 nuclear egress complex (human cytomegalovirus);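 active = both replicates at 50% or more, plus weaker picks with an unusually low signal ratio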;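 also: stock transfer was 100 nL into about 20 µL; 0% = negative control wells and 100% = wells with untagged competitor protein; inactives centre near -12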
Numbers without * were called inactive; & = joins results of further samples. These rows are one share of the data; the hit share may differ from the screen's.

SMILES	HCMV UL50-53 inh
CCN1CCN(C(c2cccs2)C(C)NC(=O)Cc2ccc(F)cc2)CC1 (configuration not stated)	3
O=C(CSc1nnc(COc2ccc(Cl)cc2)o1)N1CCc2ccccc21	-4
CC[N+](CC)(CCNC(=O)C(=O)NCC[N+](CC)(CC)Cc1ccccc1Cl)Cc1ccccc1Cl	-3
CCCCCCCCCCCSCC(=O)O	0&0
CCOC(=O)C(N)Cc1ccc(-c2cc(OC(c3ccc(Cl)cc3-n3ccc(C)n3)C(F)(F)F)nc(N)n2)cc1 (configuration not stated)	-20
CCCCN1C(=O)C2ON(c3ccc(Cl)cc3)C(c3ccccc3)C2C1=O (configuration not stated)	4
CC[C@H](C)[C@H](N)C(=O)N1CCC(Cn2cc(-c3ccc(F)cc3)nn2)CC1	8
C=C1Cn2c(nnc2-c2ccc(Br)cc2)S1	-8
CN1CCCc2cc(C(=O)N3CC(=O)N(Cc4ccccc4)CC(OCc4ccccn4)C3)ccc21 (configuration not stated)	-3
O=P(O)(O)OC1[C@@H](O)[C@H](O)C(O)[C@H](O)[C@@H]1O (some centres not stated)	-2&-2
Nc1nc(NCCc2ccc(O)cc2)nc2nc(-c3ccco3)nn12	7
Cc1nn(-c2ccccc2)c2sc(C(=O)NCCN3CCOCC3)cc12	1
Cc1cccc(NC(=O)CSc2nnnn2-c2ccccc2)c1	-5
CCCCC(=O)Nc1c(-c2ccc(OC)cc2)nc2ccccn12	-4
Clc1ccc(-c2ccnc3ncnn23)cc1Cl	-4
CCCCn1c(CNC(=O)COC)nc2ccccc21	1
NC(=O)c1ccsc1NC(=O)C1CC1	-5
CC(=O)NCc1ccc2c(c1)cc(C)n2C	-17
Cc1nc(-c2cccc(N)c2)cs1	-10
CC(=O)NCCn1ccc2ccccc21	7
O=c1c(-c2ccc(O)cc2)coc2cc(OC3OC(CO)C(O)C(O)C3O)ccc12 (configuration not stated)	-8
CCc1ccc(C2CC(=O)NC(SCC(=O)OC)=C2C#N)cc1 (configuration not stated)	5
Cc1ccc(CCNC(=O)CC(C)(C)CC2=NS(=O)(=O)c3ccccc3N2)cc1	-8
c1cc(-c2cnn3cc(-c4ccc(OCCN5CCCCC5)cc4)cnc23)ccn1	-14
CN(C)Cc1ccc(-c2nc3cccc4c3n2CCNC4=O)cc1	-22
N#Cc1ccsc1NC(=O)c1ccco1	-11
CCN1CC(Cn2cnc3c(C)c(C)ccc3c2=O)CC1=O (configuration not stated)	-6
O=C(Nc1nc(-c2cccs2)cs1)c1ccc2ncsc2c1	8
O=S(=O)(NCCCCCCc1ccccc1)c1cccc2c(Cl)cccc12	-12
CC/C=C\C/C=C\C/C=C\C/C=C\C/C=C\CCCC(=O)O	-18&-18&-6
CC(C)(C)c1ccc(C(=O)NCc2ccco2)cc1	1
CC[N+](C)(C)Cc1ccccc1Br	-13
CC1CN(Cc2oc(CO)cc(=O)c2O)CC(C)O1 (configuration not stated)	-13
O=C1c2cccc(O)c2C(=O)c2c(O)cc(CO)cc21	-116
OC(c1ccc2c(c1)OCO2)c1nccc2ccccc12 (configuration not stated)	8
COc1ccc(/C(O)=C2\C(=O)C(=O)N(CCN(C)C)C2c2ccccc2)cc1Cl (configuration not stated)	-13
CCOc1cc(N2CCC(O)CC2)ccc1Nc1ncc2c(n1)N(C)c1ccccc1C(=O)N2C	-1
COc1ccccc1C1SCCN1S(=O)(=O)c1ccccc1 (configuration not stated)	4
CCCCC(C)(C)[C@H](O)/C=C/[C@H]1[C@H](O)CC(=O)[C@@H]1CCCCCCC(=O)O	-15&-15
CCN[C@H]1CN(CCCOC)S(=O)(=O)c2sc(S(N)(=O)=O)cc21	-38
C=CCn1c(CCCNC(C)=O)nc2ccccc21	-3
Cc1ccc(NC(=O)CC(NC(C)C)C(=O)O)cc1 (configuration not stated)	-6
COc1ccc(C(=O)Nc2nc3c(C)cccc3s2)cc1OC	-13
CC(C)(C)C(=O)NS(=O)(=O)c1ccccc1	-3
CN1C(=O)C(Cc2c[nH]c3ccccc23)NC1=S (configuration not stated)	-16&5&4
O=C(O)c1ccc(CSCc2c(F)cccc2Cl)o1	4
O=C1Nc2ccccc2C1=NC1CCS(=O)(=O)C1 (configuration not stated)	-17
COCCn1c(SC)nnc1-c1c[nH]c2ccccc12	-8
CC(C)N1CCN(c2ccc(OC[C@H]3CO[C@](Cn4cncn4)(c4ccc(Cl)cc4Cl)O3)cc2)CC1	-19
O=C(NO)c1sc2ccccc2c1Cl	-13
O=C(Nc1nc(-c2ccc3c(c2)OCO3)cs1)C1CC1	-14
CCOC(=O)[C@@H](CCc1ccccc1)N[C@@H](C)C(=O)N1CCC[C@H]1C(=O)O	-47
Cc1ccccc1S(=O)(=O)N1CCOCC1	13
Cc1cc(C)c2nc(NC(=O)CN3C(=O)CCC3=O)sc2c1	-22
CC1CCCN(C(=O)CSCC(=O)Nc2nc(-c3cccs3)cs2)C1 (configuration not stated)	-18
O=c1nc2ccccc2c2n1CC(CN1CCN(c3ccccc3)CC1)N2 (configuration not stated)	-8
COc1cc(C(=O)NCc2ccc3c(c2)cc(C)n3C)cc(OC)c1OC	-8
CCCn1cnc(NC(=O)NC2CCN(Cc3ccccc3)CC2)n1	-11
CC(=O)NCc1nc2ccccc2n1C	-17
CCOc1ccc(S(=O)(=O)Nc2cc(Cl)c(O)c3ccccc23)cc1	59*

Reformatted bar-delimited: entries from further up.
structure | HCMV UL50-53 inh
Cc1ccccc1S(=O)(=O)N1CCOCC1 | 13
O=c1nc2ccccc2c2n1CC(CN1CCN(c3ccccc3)CC1)N2 (configuration not stated) | -8

(more compounds)
SMILES	HCMV UL50-53 inh
CCCn1c(=O)[nH]c2nc(-c3ccc(S(=O)(=O)O)cc3)[nH]c2c1=O	-17
C=CCn1c(C(C)NC(C)=O)nc2ccccc21 (configuration not stated)	-4
CC(C)Oc1cccc(C(=O)N2CCC(Cn3cc(C4CC4)nn3)CC2)c1	-11
CCCCC/C=C\C/C=C\C/C=C\CCCCC(=O)OC	-12&-12
Clc1cc2c(c3ncccc13)OCN(CCCN1CCOCC1)C2	34
COc1ccccc1OCC(=O)Nc1ncc(Cc2ccc(F)cc2)s1	-22
Cc1nc(CN(C)C2CCN(c3ccc(-n4cccn4)cc3)CC2)cs1	-13
CN(C)S(=O)(=O)c1ccc2c(c1)Cc1cc(S(=O)(=O)N(C)C)ccc1-2	-5
CC(NC(=O)c1ccco1)C(c1cccs1)N1CCN(c2ccccc2)CC1 (configuration not stated)	-7
C=C(N)N[C@@H](CCC(=O)O)C(=O)O	-25
Cc1c(CN2CCc3c(c(C(=O)NC4CCCC4)nn3CC(C)C)C2)c(=O)n(-c2ccccc2)n1C	1
O=C(/C=C/c1ccccc1)NCCn1ccc2ccccc21	-20
CN1C(=O)SC(Cc2ccc(C#N)cc2)C1=O (configuration not stated)	-9
COc1ccc(C(=O)Nc2sc3c(c2C(=O)NCC2CCCO2)CCCC3)cc1 (configuration not stated)	8
COc1ccccc1-c1ccc(C(=O)O)o1	-20
CC(=O)Nc1cccc(C(C(F)(F)F)C(F)(F)F)c1	-8
COc1ccc(/C=C2\SC(=S)N(CCC(=O)N(Cc3ccccc3)C(C)(C)C)C2=O)cc1OC	-18
c1cc2c(cc1C1=Nn3cnnc3SC1)OCCO2	-46
CCCC[C@H](CCC(=O)O)NC(=O)CCCCCCc1ccccc1	-14&-14
CCCCC[C@H](O)C/C=C1/C(=O)C=C[C@@H]1C/C=C\CCCC(=O)O	9

Reformatted with bars between the fields: 21 of the compounds above
smiles | HCMV UL50-53 inh
COc1cc(C(=O)NCc2ccc3c(c2)cc(C)n3C)cc(OC)c1OC | -8
CCCn1cnc(NC(=O)NC2CCN(Cc3ccccc3)CC2)n1 | -11
CC(=O)NCc1nc2ccccc2n1C | -17
CCOc1ccc(S(=O)(=O)Nc2cc(Cl)c(O)c3ccccc23)cc1 | 59*
CCCn1c(=O)[nH]c2nc(-c3ccc(S(=O)(=O)O)cc3)[nH]c2c1=O | -17
C=CCn1c(C(C)NC(C)=O)nc2ccccc21 (configuration not stated) | -4
CC(C)Oc1cccc(C(=O)N2CCC(Cn3cc(C4CC4)nn3)CC2)c1 | -11
CCCCC/C=C\C/C=C\C/C=C\CCCCC(=O)OC | -12&-12
Clc1cc2c(c3ncccc13)OCN(CCCN1CCOCC1)C2 | 34
COc1ccccc1OCC(=O)Nc1ncc(Cc2ccc(F)cc2)s1 | -22
Cc1nc(CN(C)C2CCN(c3ccc(-n4cccn4)cc3)CC2)cs1 | -13
CN(C)S(=O)(=O)c1ccc2c(c1)Cc1cc(S(=O)(=O)N(C)C)ccc1-2 | -5
CC(NC(=O)c1ccco1)C(c1cccs1)N1CCN(c2ccccc2)CC1 (configuration not stated) | -7
C=C(N)N[C@@H](CCC(=O)O)C(=O)O | -25
Cc1c(CN2CCc3c(c(C(=O)NC4CCCC4)nn3CC(C)C)C2)c(=O)n(-c2ccccc2)n1C | 1
O=C(/C=C/c1ccccc1)NCCn1ccc2ccccc21 | -20
CN1C(=O)SC(Cc2ccc(C#N)cc2)C1=O (configuration not stated) | -9
COc1ccc(C(=O)Nc2sc3c(c2C(=O)NCC2CCCO2)CCCC3)cc1 (configuration not stated) | 8
COc1ccccc1-c1ccc(C(=O)O)o1 | -20
CC(=O)Nc1cccc(C(C(F)(F)F)C(F)(F)F)c1 | -8
COc1ccc(/C=C2\SC(=S)N(CCC(=O)N(Cc3ccccc3)C(C)(C)C)C2=O)cc1OC | -18

Carrying on:
SMILES	HCMV UL50-53 inh
FC(F)(F)c1nnc2n1N=C(c1ccccc1)CS2	-2
c1ccc(Cc2nnc3n2CCCCC3)cc1	-3
CCC(CC)C(=O)NCc1ccc2[nH]c(C)cc2c1	-16
O=C(Cn1cnc2ccccc21)N1CCc2c(cc(-c3cccc(Cl)c3)c(=O)n2CC2CC2)C1	6
O=C(CSc1nc2ccccc2c(=O)[nH]1)NCc1ccco1	-9
COC(C)(C)CCCC(C)C/C=C/C(C)=C/C(=O)O (configuration not stated)	-11
NC1=NC2C(N=C(Br)N2C2O[C@H]3COP(=O)(O)O[C@@H]3[C@@H]2O)C(=O)N1 (some centres not stated)	-6
c1csc(CSc2nc3ccccc3s2)c1	9
COC(=O)Nc1c(-c2ccccc2)nc2ccccn12	-27
CC(C)CC(CO)Nc1nc(Nc2cccc(Cl)c2)c2ncn(C(C)C)c2n1 (configuration not stated)	-13
CCCCC[C@H](O)/C=C/[C@H]1[C@H](O)CC(=O)[C@@H]1C/C=C/CCCC(=O)O	-22&-22
CC[C@@]1([C@@H]2O[C@@H]([C@H]3O[C@@](O)(CO)[C@H](C)C[C@@H]3C)C[C@@H]2C)CC[C@H]([C@]2(C)CC[C@]3(C[C@H](O)[C@@H](C)[C@@H]([C@@H](C)[C@@H](OC)[C@H](C)C(=O)O)O3)O2)O1 (stereo in doubt)	-11
CCCCC/C=C\C/C=C\C/C=C\C/C=C\CCCC(=O)S[C@H](COCCCCCCCCCCCCCCCC)COP(=O)([O-])OCC[N+](C)(C)C	-11&-11
COc1ccc2c(=O)c(-c3ccc(Br)cc3)coc2c1	-7
c1nc(N2CCCCC2)c2[nH]cnc2n1	8
Oc1cccc(-c2nc(N3CCOCC3)c3oc4ncccc4c3n2)c1	-26&-18&-20&-20&-31&-28&-32
O=C(c1cn(-c2ccccc2)nc1-c1ccncc1)N1CCCCC1	15&1
O=C(Nc1nccs1)c1ccc(S(=O)(=O)N2CCCCC2)cc1	-18
Nc1ncnc2c1ncn2C1OC(CO)CC1O (configuration not stated)	-16
Cc1ccccc1CS(=O)(=O)c1c[nH]c2ccccc12	-1
O=c1c(-c2ccc3c(c2)OCCO3)c(C(F)(F)F)oc2cc(O)ccc12	-8
COc1cc2cc(=O)[nH]c(C)c2cc1OC	51
O=C(O)CCCN1C(=O)S/C(=C\C=C\c2ccccc2)C1=O	-72
Cc1ccc(C)n1-c1ccc(-c2ccn[nH]2)cc1	-2
COc1ccc(OC)c2c(=S)c3ccccc3[nH]c12	-122&-85&-33
C=CCSc1nnc(-c2ccc(C(F)(F)F)cn2)s1	-7
C=CCn1cc(-c2nc3c([nH]2)c(-c2cccnc2)nn3C)c(C)n1	-18&-18
CC(=O)OC1C[C@@H]2CC[C@@H]3[C@@H](CC[C@]4(C)C(OC(C)=O)C([N+]5(C)CCCCC5)C[C@@H]34)[C@@]2(C)CC1[N+]1(C)CCCCC1 (some centres not stated)	4
N#CC(C#N)=C1C=C(c2ccccc2)Sc2ccccc21	-17
c1ccc2oc(SCc3cn4ccsc4n3)nc2c1	-10
O=c1[nH]cnc2c1ncn2C1O[C@H](CO)[C@@H](O)[C@H]1O (some centres not stated)	-81
Cc1c(Br)cc(C(=O)NC(C)C)c(C)c1C	-12
CN1CCN(c2ncnc3c2cnn3Cc2ccc(Cl)cc2)CC1	-9
CC1CCC(C(C)C)C(OCC(O)CN2CCN(Cc3ccccc3)CC2)C1 (configuration not stated)	-9
CN1CCN(S(=O)c2ccc3ccccc3c2)CC1 (configuration not stated)	-20
O=C1OCCC1Sc1nc2sc3c(c2c(=O)[nH]1)CCCC3 (configuration not stated)	-15
O=C1CCCN2N=C(SCC(=O)Nc3ccccc3)SC2=N1	-18
O=C(Nc1n[nH]c(Cc2ccccc2)n1)N1CCN(C(=O)c2ccco2)CC1	-2
CCN(CC)C(CNCc1ccc(OC)c(F)c1)c1ccco1 (configuration not stated)	12
Cc1sc(NC(=O)c2ccco2)c(C(c2ccccc2)N2CCN(C)CC2)c1C (configuration not stated)	-4
COc1cc(Cl)c(S(=O)(=O)Nc2ccccn2)cc1Cl	-5
CCOC(=O)c1ccc(NC(=O)/C=C/c2ccc(C)o2)cc1	-16
CC(CCCC(C)(C)O)CCNCC1(c2ccccc2)CCOCC1 (configuration not stated)	-25
OCCNc1ncnc2c1c(-c1ccccc1)cn2-c1ccccc1	-12
CCCCC/C=C/C/C=C/CCCCCCCC(=O)O	-19&-19
OCCCc1nc2ccccc2[nH]1	0
COc1cccc(NC(=O)c2ccncc2)c1	-16
O=c1[nH]c(-c2cccnc2)nc2ccccc12	3
C=C1C2(C(N)=O)CCC(C2)C1(C)C (configuration not stated)	-19
Cc1cccc(C)c1OCC(=O)O	-11
CCCCc1cc2ccccc2c(OCCN(C)C)n1	0
CN1C(=O)/C(=C\C=C\c2ccccc2)SC1=S	-6
COc1ccccc1NS(=O)(=O)c1ccccc1	-13
CCN1C(=O)NC(c2ccccc2)C1=O (configuration not stated)	-29
CCCCC[C@H](O)/C=C/[C@H]1C(=O)C[C@H](O)[C@@H]1C/C=C/CCCC(=O)O	-15&-15
